Vif TR-FRET = HIV-1 Vif–A3G interaction blockers – biochemical, TR-FRET, GST-Vif 1-94, biotin-A3G peptide, dose response retest, primary screen (AID 1117319) | inhibition, %, or IC50 in µM where a hit was titrated | TR-FRET GST-Vif / biotin-A3G peptide binding; higher % means a stronger effect; test concentration not given here; strong numbers were not always called active | 0.57% of 260,000 active;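 active = above the screen mean plus three standard deviations and confirmed in dose response; inconclusive = results disagree or hit not tested in dose response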;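 also: Vif residues 1-94 fused to GST binding biotinylated APOBEC3G peptide 110-148; 0% = full assay without inhibitor and 100% = GST in place of GST-Vif; retest series ran down from 100 µM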
HNF4A DNA FP = change in binding of human HNF4 alpha to DNA. activity change, % at 10 µM. HNF4a-FITC DNA binding, fluorescence polarization, 1 h. 0.3% of 360,000 active. P41235. AID 1224865; in the data active = activity change above about 30%, passing the limit was not always enough;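 also: controls were the assay level and a saturating level of protein; the project sought stronger binding though the title names inhibitors; some compounds called inactive have numbers as strong as hits; positive values seem to mean higher polarization but the record does not say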
Target sequence (P41235 whole entry, looked up): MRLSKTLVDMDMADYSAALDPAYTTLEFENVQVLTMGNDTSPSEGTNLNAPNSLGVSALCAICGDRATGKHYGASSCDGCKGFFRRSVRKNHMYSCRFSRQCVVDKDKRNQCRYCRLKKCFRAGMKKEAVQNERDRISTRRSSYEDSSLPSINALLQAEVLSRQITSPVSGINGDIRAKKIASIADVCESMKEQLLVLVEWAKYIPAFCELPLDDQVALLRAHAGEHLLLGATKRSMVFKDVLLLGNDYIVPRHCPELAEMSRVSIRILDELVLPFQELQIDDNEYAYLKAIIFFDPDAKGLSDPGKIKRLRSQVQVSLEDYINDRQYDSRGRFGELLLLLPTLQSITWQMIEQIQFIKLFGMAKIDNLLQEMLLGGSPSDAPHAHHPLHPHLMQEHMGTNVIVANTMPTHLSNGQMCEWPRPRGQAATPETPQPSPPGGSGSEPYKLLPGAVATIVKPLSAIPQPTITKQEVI
LANA-H2A inh = blocks KSHV LANA binding to histone H2A/H2B | Q9QR71 | cell-free LANA-H2A/H2B peptide, fluorescence polarization | inhibition, % (no concentration beside the values) | 0.6% of 320,000 active | AID 2629; in the data active = inhibition mostly above about 10%, no sharp cut-off; inactive = mostly below about 6.7%;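 also: stock transfer was 7.5 nL into about 10 µL; 0% = median of vehicle wells and 100% = median of positive control wells; one replicate is shown; the record names a cut of 25% in any replicate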
Calb FLC = C. albicans growth modulation with fluconazole | C. albicans CaCi-2 (fluconazole-resistant clinical isolate) + fluconazole, Alamar Blue growth, 48 h | 0.57% of 300,000 active | AID 1979 | growth inhibition, % (test concentration not listed);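 active = most replicates above 75%; inconclusive = exactly half above 75%; inactive = most below 75%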;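 also: all wells also contain fluconazole at 8 µg/ml as a sub-toxic cotreatment; 0% = median of DMSO wells and 100% = median of geldanamycin control wells; wells of about 8 µL received 7.5 nL stock; the first replicate is given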
Beta2AR agonist = human beta-2 adrenergic receptor agonism by FAP. P07550. Am2.2-beta2AR cells, FAP receptor internalization, flow cytometry; reference of the scale not given here. response, % (test concentration not listed). 0.43% of 340,000 active. AID 504454;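 active = response above a set limit, near 3 SD of response in nonfluorescent compounds, cut at about 42% in these data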;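 also: stock transfer was 100 nL into about 11 µL; a reference agonist was the positive control; negative values mostly stem from fluorescent compounds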
Target sequence (P07550 whole entry, looked up): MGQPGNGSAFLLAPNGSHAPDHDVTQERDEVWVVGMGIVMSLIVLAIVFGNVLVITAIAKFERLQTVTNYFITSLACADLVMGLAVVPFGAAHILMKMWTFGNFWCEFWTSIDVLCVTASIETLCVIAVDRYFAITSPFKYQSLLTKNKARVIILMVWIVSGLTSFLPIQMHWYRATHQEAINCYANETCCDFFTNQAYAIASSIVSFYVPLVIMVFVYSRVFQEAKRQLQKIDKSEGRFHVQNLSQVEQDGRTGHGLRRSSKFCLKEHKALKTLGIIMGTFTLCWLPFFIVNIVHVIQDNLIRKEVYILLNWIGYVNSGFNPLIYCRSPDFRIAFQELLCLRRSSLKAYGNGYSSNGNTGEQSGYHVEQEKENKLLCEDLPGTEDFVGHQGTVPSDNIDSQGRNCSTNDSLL
ALR H2O2 inh = human ALR oxidase inhibition via reduced H2O2; purified ALR, DTT oxidation, H2O2 HRP-luminol luminescence; inhibition, % (test concentration not listed); 3.8% of 290,000 active; AID 485317;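 active = mean and each replicate at 75% or more; inconclusive = only one of the two met; inactive = neither met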;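 also: stock transfer was 7.5 nL into about 7.5 µL; 0% = neutral wells and 100% = wells with inactivated enzyme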
Target sequence (P55789 whole entry, looked up): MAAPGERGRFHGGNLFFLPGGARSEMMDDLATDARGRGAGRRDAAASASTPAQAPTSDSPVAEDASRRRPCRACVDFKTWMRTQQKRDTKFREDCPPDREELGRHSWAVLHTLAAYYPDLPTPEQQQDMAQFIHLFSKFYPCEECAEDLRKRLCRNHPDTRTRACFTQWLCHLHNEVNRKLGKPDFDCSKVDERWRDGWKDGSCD
RanGTP-Impb inh = disruptors of Ran-importin-beta complex formation – biochemical, FRET, CFP-Ran, YFP-importin-beta, homogeneous, primary screen; cell-free CFP-Ran/YFP-importin-beta FRET ratio; inhibition, % (concentration not given with the values); 1.1% of 300,000 active; AID 2216;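 active = most replicates above 15%; inconclusive = exactly half above 15%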;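 also: 0% = DMSO wells and 100% = Ran loaded with GDP instead of GTP; wells of about 40 µL received 100 nL stock; the first replicate is given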
* = called active by the depositor; ? = inconclusive; / = no result given; & = joins results of further samples.

SMILES | Vif TR-FRET | HNF4A DNA FP | LANA-H2A inh | Calb FLC | Beta2AR agonist | ALR H2O2 inh | RanGTP-Impb inh
O=C(NC(=S)NNC(=O)c1ccccc1O)c1ccc(F)cc1 | / | 2.3 | 0.3 | 3 | -2 | 10 | -3.2
Cc1cc(C(=O)COC(=O)C2=NNC(=O)CC2)c(C)n1-c1ccc(OC(F)F)cc1 | 9% | -6.9 | -3.0 | -17 | 3 | 1 | 2.0
O=C(NCCC1=CCCCC1)C1CCN(S(=O)(=O)c2ccc(Br)s2)CC1 | 14% | -0.5 | 0.9 | -1 | -9 | -2 | -2.4
COc1cccc(NC(=O)CSCc2n[nH]c(=O)[nH]2)c1 | 3% | -2.6 | -0.9 | -1 | -3 | -8 | 0.4
C/C(=N\NC(=S)Nc1ccccc1C)c1ccc(O)cc1 | 8% | -0.7 | 0.8 | 23 | -5 | 31 | 0.3
COc1ccc(OC)c(S(=O)(=O)Nc2ccc3c(c2)N(C(C)=O)CCC3)c1 | 0% | -0.4 | -2.5 | -7 | 5 | / | 1.4
COc1ccc(-c2cc(-c3nnc(COC(=O)C4CC4C)o3)c3ccccc3n2)cc1OC (stereo not given) | -3% | 1.3 | -7.0 | -6 | -18 | -7 | 8.9
O=C(N/C=N/OCc1ccc(Cl)cc1Cl)NOCc1c(Cl)cccc1Cl | 8% | -0.3 | -3.5 | -4 | 4 | -8 | -0.3
COc1ccc(S(=O)(=O)Nc2ccc(S(=O)(=O)Nc3ccc(F)cc3)cc2)cc1C | ? | 3.8 | -1.1 | 7 | 10 | -4 | 0.2
COc1ccc(C(=O)NCc2ccc(S(N)(=O)=O)cc2)cc1[N+](=O)[O-] | / | 2.5 | 8.8 | -18 | 0 | -5 | 2.4
Cc1ccc2c(c1)N(C(=O)CCC(=O)NCCCN1CCN(C)CC1)CCO2 | / | 2.1 | -3.2 | -29 | -1 | -1 | ?
O=C(NCCN1CCC(Cc2ccccc2)CC1)C1CCN(S(=O)(=O)N2CCC3(CC2)OCCO3)CC1 | / | 1.5 | -1.7 | -9 | -6 | -1 | 1.7
CC(C)N(C(=O)CSc1nnc(Cn2nnc3ccccc32)n1C)C(C)C | 3% | -1.2 | -0.8 | -4 | -2 | / | -0.4
O=C(c1ccc(Cl)cc1)c1cn[nH]c1-c1ccccc1O | -1% | 6.1 | 1.6 | -4 | 4 | 23 | 1.6
CCc1ccc(NC(=O)c2ccc(NC(=O)C3CCCO3)cc2)cc1 (stereo not given) | / | 4.1 | -0.8 | 5 | 10 | 2 | 0.4
COC(=O)[C@@]1(Cc2ccc(F)cc2)[C@H]2c3cc(C(=O)N4CCCC4)n(CCc4ccc(O)c(O)c4)c3C[C@H]2CN1C(=O)c1ccccc1 | / | / | -1.0 | -6 | / | 3 | -3.2
COc1cc(C(=S)N2CCN(c3ccccc3Cl)CC2)cc(O)c1O | ? | -4.8 | 1.8 | 91* | 4 | 99* | -1.5
COc1cc(/C=C/C(=O)OCC(=O)NCCN2C(=O)CSC2=O)ccc1OC(F)F | / | -3.6 | / | 16 | -2 | / | 0.3
C[C@H](CO)N1C[C@H](C)[C@@H](CN(C)C(=O)NC2CCCCC2)Oc2c(NC(=O)Cc3ccccc3)cccc2C1=O | / | 0.5 | 2.8 | / | -2 | -5 | /
CC(=O)NC1C(=O)SC1(C)C (stereo not given) | 25% | / | 4.7 | 2 | / | -2 | -0.5
COc1cccc(NC(=O)COC(=O)c2cccnc2)c1 | 30% | 3.7 | -1.1 | 4 | -1 | / | 0.7
COc1ccc(-c2cc(C(F)(F)F)nc(N3CCN(Cc4ccccc4)CC3)n2)cc1OC | -8% | 0.4 | -5.8 | 10 | -1 | -12 | 1.2
Cc1sc2ncn(CC(=O)NCc3ccccc3)c(=O)c2c1C | -2% | 1.3 | 2.9 | 5 | -15 | / | -1.7
NC(=O)NC(c1ccccc1)c1ccccc1 | 2% | 2.2 | 2.1 | 24 | -4 | -3 | 0.1
O=C(C1=C[C@@H](c2coc3ccccc3c2=O)C[C@@H](OCc2ccc(CO)cc2)O1)N1CCCCCCC1 | 1% | -1.0 | -4.4 | 2 | -17 | -31 | 5.1

Three compounds drawn at random from those above:
SMILES | Vif TR-FRET | HNF4A DNA FP | LANA-H2A inh | Calb FLC | Beta2AR agonist | ALR H2O2 inh | RanGTP-Impb inh
O=C(C1=C[C@@H](c2coc3ccccc3c2=O)C[C@@H](OCc2ccc(CO)cc2)O1)N1CCCCCCC1 | 1% | -1.0 | -4.4 | 2 | -17 | -31 | 5.1
Cc1sc2ncn(CC(=O)NCc3ccccc3)c(=O)c2c1C | -2% | 1.3 | 2.9 | 5 | -15 | / | -1.7
C/C(=N\NC(=S)Nc1ccccc1C)c1ccc(O)cc1 | 8% | -0.7 | 0.8 | 23 | -5 | 31 | 0.3

Continuation.
SMILES | Vif TR-FRET | HNF4A DNA FP | LANA-H2A inh | Calb FLC | Beta2AR agonist | ALR H2O2 inh | RanGTP-Impb inh
COC(=O)c1cc(Br)cn1S(=O)(=O)c1ccccc1 | -7% | -1.4 | 1.8 | 4 | 1 | / | -0.3
CCOC(=O)CNC(=O)N1CCCC(C(=O)c2ccccc2SC)C1 (stereo not given) | -3% | 2.4 | 4.1 | -2 | 4 | 10 | 0.2
CCOP(=O)(OCC)C(Nc1ccccn1)c1ccc(F)cc1 (stereo not given) | / | 0.3 | -3.2 | -7 | -5 | / | 9.8
CCC1Oc2ccc(C)cc2N(CC(=O)NCc2ccco2)C1=O (stereo not given) | 31% | -1.4 | 1.9 | -7 | 1 | -5 | 1.8
O=C(c1ccc(OC2CCN(C/C=C/c3ccccc3)CC2)cc1)N1CCCC1 | 1% | 0.8 | -0.5 | -22 | 0 | 2 | 7.7
COc1ccc(S(=O)(=O)N2CCCCC2C(=O)O)cc1 (stereo not given) | 22% | -2.3 | -5.4 | 6 | -1 | -6 | -2.1
Cc1cc(N2CCOCC2)nc(SCC(=O)c2ccccc2)n1 | 9% | -1.0 | -2.3 | 0 | -7 | -10 | 2.6
CC(=O)Nc1ccccc1C(=O)N1CCN(c2cccc(C)c2C)CC1 | 3% | 2.2 | 2.2 | -24 | -1 | 11 | 1.4
CCN1C(=O)[C@@H]2[C@@H](c3ccc(-c4ccc(C(C)=O)cc4)cc3)N3CCCC[C@@]3(C(=O)OC)[C@@H]2C1=O | / | 1.5 | 1.8 | 12 | 2 | 0 | 2.8
COc1cc(OC)cc(C(=O)NCC(=O)N2CCC(C)CC2)c1 | 3% | -2.2 | 2.6 | -2 | -1 | 14 | 1.7
COc1ccc(-n2cc(C(=O)O)c(=O)cc2C)cc1 | 0% | 0.2 | -3.3 | -11 | 3 | -20 | 3.3
Cc1cccc(-[n+]2c(C)cc(C)c3c(=O)[nH]c(=O)[nH]c32)c1 | / | -0.4 | / | 6 | 14 | / | 5.0
CCC1ON(C(C)C)C2c3nc4ccccc4n3CC12 (stereo not given) | 4% | -1.9 | 1.4 | -14 | -4 | -1 | -0.2
Cc1cccc(C(=O)NNS(=O)(=O)c2ccc(F)cc2)c1O | / | -0.5 | -6.1 | 33 | 3 | 13 | ?
CC(C)N(C(=O)Nc1ccc2nsnc2c1)C(C)C | 1% | / | 3.2 | 41 | / | -4 | -9.1
O=C1CCC(=O)N1c1ccc(NCCc2ccccc2F)c([N+](=O)[O-])c1 | -1% | -0.8 | -2.7 | -9 | -4 | 1 | -2.4
O=C(/C=C/c1ccc(Cl)cc1Cl)NC(=S)Nc1ccccn1 | 7% | 0.5 | 2.3 | 9 | -7 | -7 | 2.9
COc1cc2c(C(=O)NCCCN3CC(C)CC(C)C3)cn(CC(C)C)c(=O)c2cc1OC (stereo not given) | -6% | 0.6 | -3.3 | 5 | -7 | 3 | -1.5
Cc1noc(C)c1COC(=O)c1ccc(-c2nc3ccccc3s2)s1 | -16% | -0.2 | -3.3 | -7 | -1 | 10 | -0.2
COc1ccc(C(C(=O)NC2CCCCC2)N(C(=O)Cc2c[nH]c3ccccc23)c2ccccc2C)cc1OC (stereo not given) | / | -4.3 | -1.3 | 46 | 13 | -1 | ?
COc1ccccc1-c1cn(S(=O)(=O)c2ccc(F)cc2)nc1N | 2% | 1.9 | -3.5 | 2 | -8 | 19 | 2.9
O=c1oc2cc(O)ccc2cc1-c1ccc(F)cc1 | -1% | 10 | 2.3 | 1 | 15 | 28 | 149*
O=C(CSc1nnnn1-c1ccccc1)N1CCc2ccccc2C1 | -1% | 2.4 | -0.5 | -10 | -6 | 2 | /
C=CCN1C(=O)c2ccc(C(=O)N3CCC(C(=O)OCC)CC3)cc2C1=O | -5% | -1.0 | / | / | -5 | / | /
Cc1ccc(/C(N)=N/OC(=O)Oc2ccccc2)cc1 | 3% | 0.2 | -3.1 | 3 | 1 | 22 | -3.1
(next part)
SMILES | Vif TR-FRET | HNF4A DNA FP | LANA-H2A inh | Calb FLC | Beta2AR agonist | ALR H2O2 inh | RanGTP-Impb inh
O=C(N/N=C/C=C/c1ccccc1)c1ccccc1Br | ? | 1.8 | 3.2 | -60 | 16 | / | -0.1
Cc1cc(NC(=O)c2cc3n(n2)C(C(F)(F)F)CC(c2ccco2)N3)n(-c2ccccc2)n1 (stereo not given) | -3%&-1% | 1.2 | -2.7 | 3 | -16 | / | 4.2
C=CCn1c(CSc2nc3ccccc3s2)nnc1SCC(=O)NCCN1CCOCC1 | 13%&-8% | -2.1 | -7.0 | -1 | -10 | 5 | 7.8
CCOC(=O)C1=C(C)NC(=O)NC1c1ccc(OCC(N)=O)cc1 (stereo not given) | 1% | -0.9 | 2.6 | -2 | 0 | -4 | 1.3
COc1ccc(-c2nnc(NC(=O)c3ccc(S(=O)(=O)N(C)CC4CCCO4)cc3)o2)c(OC)c1 (stereo not given) | 0% | 12 | 0.0 | 31 | 2 | 59 | ?
CC(C)(C)NC(=O)CCCSc1nc2ccccc2s1 | 2% | -1.7 | 2.6 | -1 | -1 | 39 | -4.1
O=C(O)CSc1nc(-c2ccccc2)nc2c1CCCC2 | -3% | 2.4 | -2.1 | 2 | 2 | / | -1.6
CC(Sc1nnnn1C1CC1)C(=O)N1CC(=O)Nc2ccccc21 (stereo not given) | -4% | -1.8 | -8.4 | / | 12 | / | /
COc1ccc(OC)c(S(=O)(=O)N2CCN3CCCC3C2)c1 (stereo not given) | / | -2.3 | 5.7 | 3 | -5 | -17 | -2.4
COC(=O)c1cn(-c2ccccc2)nc1-c1ccccc1 | 3% | 0.7 | -2.4 | -18 | -6 | -2 | 2.0
Cc1cccc(NC(=S)NNC(=O)COc2ccc(Cl)cc2Cl)c1 | 5% | -0.5 | -10 | 10 | -220 | 32 | -0.7
Cc1ccc(C(=O)NCC(=O)Nc2ccncc2)cc1 | -1% | -1.0 | -5.9 | 0 | 8 | -3 | -1.0
O=C(NCCc1c[nH]c2ccccc12)C(=O)NCC1OCCN1S(=O)(=O)c1ccc(F)cc1 (stereo not given) | 24% | -1.2 | 1.9 | -2 | 8 | -6 | 2.4
O=C(NC1CC1)c1ccc(NC(=O)C2CCCCC2)cc1 | -8% | 4.3 | / | / | -5 | / | /
CN1CCCC(OC(=O)c2cccc(Cl)c2)C1 (stereo not given) | 8% | 13 | 0.8 | -2 | -2 | 0 | ?
O=C(NCCCn1ccnc1)C(=O)NCC1OCCN1S(=O)(=O)c1ccccc1 (stereo not given) | 20% | -4.2 | -3.0 | -12 | -2 | 2 | -3.9
O=C(CCc1nc2ccccc2c(=O)[nH]1)N1CCN(c2ccccc2Cl)CC1 | / | -1.4 | 2.2 | / | -1 | -4 | /
O=C(COc1ccc(Cl)cc1)Nc1ccc(N2CCN(C(=O)c3ccco3)CC2)cc1 | 3% | 0.8 | 2.7 | 16 | 9 | 0 | ?
CCC(=O)/C=C1\Sc2ccccc2N1CC | -11% | 0.5 | 1.4 | -6 | -8 | 15 | 8.1

High-throughput results deposited in PubChem by several laboratories.
